VDR inh: blocks the human vitamin D receptor; AID 504847; P11473; VDR-SRC2-3 peptide fluorescence polarization, 2 h; 400,000 tested, 0.93% active; Potency, µM, inactives show max response, negative = inhibition, hits mostly inhibitors; active = well fitted inhibition curve with a large enough effect; inconclusive = small, poorly fitted or top-dose-only effect, or another doubt; inactive = no such curve, though single readings can be large or run the other way; note: series mostly up to about 120 µM
Target sequence (P11473 whole entry, looked up): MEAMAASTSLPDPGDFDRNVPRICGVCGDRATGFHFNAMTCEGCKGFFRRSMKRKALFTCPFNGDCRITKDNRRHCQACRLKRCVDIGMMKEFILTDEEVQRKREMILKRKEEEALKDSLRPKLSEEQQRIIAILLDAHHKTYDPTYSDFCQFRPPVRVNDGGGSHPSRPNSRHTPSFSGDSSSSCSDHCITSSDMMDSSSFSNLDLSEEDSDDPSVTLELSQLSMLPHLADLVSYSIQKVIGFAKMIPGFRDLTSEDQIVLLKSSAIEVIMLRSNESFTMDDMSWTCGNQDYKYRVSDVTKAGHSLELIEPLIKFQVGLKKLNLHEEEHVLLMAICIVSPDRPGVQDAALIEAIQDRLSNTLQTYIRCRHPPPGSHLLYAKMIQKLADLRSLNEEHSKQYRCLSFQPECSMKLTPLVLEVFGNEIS
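Fluorescence polarization assay of small-molecule disruption of VDR binding to coregulator peptide SRC2-3. Compounds and controls pin-transferred, then read after 2 h incubation at ambient room temperature.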
The depositor's hits bear a star; ? = inconclusive; & = joins results of further samples; [ ] = remark or other dose. % is set by controls: 0 for no effect and ±100 for the full control effect; potency is the fitted concentration of half-maximal effect.

SMILES	VDR inh
CCOC(=O)CSc1nc2cc(C(=O)NCC3CCCO3)ccc2c(=O)n1Cc1ccco1 (configuration not stated)	-2%
CCC(=O)N(Cc1cc(=O)[nH]c2ccccc12)c1ccc(C)cc1C	-2%
CC(=O)Nc1c(C(=O)N2CCOCC2)cnn1-c1ccc(C)c(C)c1	8%
COc1cc(NC(=O)CN(C)S(=O)(=O)c2ccc3c(c2)CC(C)N3C(C)=O)cc(OC)c1 (configuration not stated)	3%
Cc1ccc(C(=O)CC2SC(N)=NC2=O)cc1 (configuration not stated)	8%
COc1ccc2nc(Nc3nc4ccc(NC(C)=O)cc4s3)sc2c1	1%
CCC(=O)N1CCN(c2ccc(NC(=O)c3cc4ccccc4o3)cc2Cl)CC1	-7%
Cc1cc(C)c2c(c1)c1nnc(SCCN3CCOCC3)nc1n2C	2%
CN(C(=O)c1ccccc1Br)C1CCS(=O)(=O)C1 (configuration not stated)	-4%
COc1ccc(NC(=O)c2cc3c(=O)n(C)c4ccccc4c3s2)cc1OC	-11%
O=C1CCCN1CCC(=O)N1CCCC(N2CCN(c3ccccc3F)CC2)C1 (configuration not stated)	-7%
Cc1cccc(OC(=O)c2sc(Cl)nc2C)c1	7%
CC(NC(=O)COC(=O)c1c[nH]c2ccccc12)c1ccccc1 (configuration not stated)	14%
NC(=O)c1cc(NC(=O)CCCc2nc3ccccc3s2)cc(C(N)=O)c1	5%
CCCCc1nc(Cl)c(C#N)c2c1CCCC2	-12%

An excerpt from above in order of the VDR inh value, ascending.
SMILES	VDR inh
COc1ccc(NC(=O)c2cc3c(=O)n(C)c4ccccc4c3s2)cc1OC	-11%
CCOC(=O)CSc1nc2cc(C(=O)NCC3CCCO3)ccc2c(=O)n1Cc1ccco1 (configuration not stated)	-2%
COc1ccc2nc(Nc3nc4ccc(NC(C)=O)cc4s3)sc2c1	1%
CC(=O)Nc1c(C(=O)N2CCOCC2)cnn1-c1ccc(C)c(C)c1	8%
CC(NC(=O)COC(=O)c1c[nH]c2ccccc12)c1ccccc1 (configuration not stated)	14%

Next section
SMILES	VDR inh
CCCCN1CCC(=O)C(C(=O)OCC)=C1C(=O)OCC	-15%
C=CCNC(=S)NNC(=O)CCC(O)COCCC(C)C (configuration not stated)	-1%
COC(=O)c1ccccc1OCCOc1ccccc1C(=O)OC	-18%
COc1ccccc1Cn1c(=S)[nH]c2cc(C(=O)NCC(OC)OC)ccc2c1=O	-1%
CSc1ccc(Cc2ccc(Cl)cc2Cl)nn1	-16%
CC(=O)NCCC(=O)Nc1cc(S(=O)(=O)N2CCCCC2)ccc1N1CCN(C)CC1	-8%
COc1cccc2cc(-c3nnc(SCC(=O)Nc4ccc(NC(C)=O)cc4)n3C)oc12	8%
CCOc1ccccc1N1CCN(C(=O)c2ccccc2OCc2c(C)noc2C)CC1	-18%
Cc1ccccc1-c1nc(NC(=O)CSc2ncnc3sc4c(c23)CCCC4)ns1	-2%
COc1ccccc1NC(=O)C1=C(C)Nc2ncnn2C1c1ccc[nH]1 (configuration not stated)	8%
COc1cc(OC)cc(-n2c(=O)c3sccc3n(Cc3cc(=O)n4c(C)cccc4n3)c2=O)c1	7%
O=C(CCc1nnc(COc2ccccc2)o1)NCc1ccccc1	-8%
O=C(COC(=O)Cc1cccs1)NCC(=O)Nc1ccc(F)cc1	-3%
CC(=O)N1CCCc2cc(S(=O)(=O)N3CCCC(C(=O)NCc4ccc(Cl)cc4)C3)ccc21 (configuration not stated)	147%&2%[activator]
CCOc1ccc(NC(=O)C2CC(=O)NC(=Nc3ccc(Cl)c(Cl)c3)S2)cc1 (configuration not stated)	-3%

Of the compounds above, 2 have two or more sulfur atoms:
SMILES	VDR inh
COc1ccc2nc(Nc3nc4ccc(NC(C)=O)cc4s3)sc2c1	1%
Cc1ccccc1-c1nc(NC(=O)CSc2ncnc3sc4c(c23)CCCC4)ns1	-2%

Retrieved by compound from the list above (3):
SMILES	VDR inh
CCOc1ccc(NC(=O)C2CC(=O)NC(=Nc3ccc(Cl)c(Cl)c3)S2)cc1 (configuration not stated)	-3%
CCCCN1CCC(=O)C(C(=O)OCC)=C1C(=O)OCC	-15%
CC(=O)NCCC(=O)Nc1cc(S(=O)(=O)N2CCCCC2)ccc1N1CCN(C)CC1	-8%

(list continues)
SMILES	VDR inh
Cn1c(=O)[nH]c(=O)c2c1nc(N1CCCCCC1)n2CCSc1nc2ccccc2[nH]1	-1%
CCCCC(=O)N(c1ccc(C)c(C)c1)C1C=CS(=O)(=O)C1 (configuration not stated)	1%
CCN1C(C)=C(C)S/C1=C1\SC(=S)N(NC(C)=O)C1=O	-7%
COc1ccc(/C=N/N=C(\N)c2nonc2N)cc1	-13%
COc1ccc(/C=N/Nc2nnc(Cc3ccc(OC)c(OC)c3)c(=O)[nH]2)cc1	10%
CCCc1ccc(OCC(=O)NNC(=S)NC(=O)c2ccco2)cc1	3%
Cc1ccc(NC(=O)N(C2CCCCC2)C(C)c2cccnc2)cc1C (configuration not stated)	-1%
O=C(Nc1nn(Cc2ccc(Cl)cc2)cc1Br)c1ccc(COc2ccccc2Cl)o1	7%
Cc1ccc(Oc2ncccc2NC(=O)CC2(CC(=O)O)CCCC2)c2c1CCC2	6%
O=C(NCC(c1ccco1)S(=O)(=O)c1cccs1)c1ccc(F)cc1 (configuration not stated)	5%
COc1ccc(NC(=O)C2C3C=CC(C3)C2C(=O)NCc2ccco2)c(OC)c1 (configuration not stated)	15%
O=C1NC[C@H](c2ccccc2)OC(=O)[C@H](Cc2ccc(F)cc2)CC/C=C/C[C@H]1CC(=O)N(CCO)Cc1ccccc1	-10%
O=C(CCCCCNC(=O)N1CCn2c1nc1ccccc12)N[C@@H](Cc1ccccc1)C(=O)O	-3%
CS(=O)(=O)N(CC(=O)N1CCOCC1)c1ccc(Cl)cc1	-8%
CCC(c1nnnn1C1CCCCC1)N1CCN(C(=O)c2ccco2)CC1 (configuration not stated)	-10%

Brought forward from above: seven compounds, then new ones.
SMILES	VDR inh
Cc1ccc(Oc2ncccc2NC(=O)CC2(CC(=O)O)CCCC2)c2c1CCC2	6%
O=C(NCC(c1ccco1)S(=O)(=O)c1cccs1)c1ccc(F)cc1 (configuration not stated)	5%
COc1ccc(NC(=O)C2C3C=CC(C3)C2C(=O)NCc2ccco2)c(OC)c1 (configuration not stated)	15%
O=C1NC[C@H](c2ccccc2)OC(=O)[C@H](Cc2ccc(F)cc2)CC/C=C/C[C@H]1CC(=O)N(CCO)Cc1ccccc1	-10%
O=C(CCCCCNC(=O)N1CCn2c1nc1ccccc12)N[C@@H](Cc1ccccc1)C(=O)O	-3%
CS(=O)(=O)N(CC(=O)N1CCOCC1)c1ccc(Cl)cc1	-8%
CCC(c1nnnn1C1CCCCC1)N1CCN(C(=O)c2ccco2)CC1 (configuration not stated)	-10%
CCCN(CCC)CC(O)COc1ccc2c(c1)OCO2 (configuration not stated)	15%
COc1ccc(/C=C(/C#N)C(=O)Nc2cc(C)ccc2C)cc1C(=O)O	0%
Cc1ccc(C2(C)NC(=O)N(CC(=O)N3CCN(C(=O)c4cccs4)CC3)C2=O)cc1 (configuration not stated)	-21%
COc1cccc(NC(=O)CN(C)C(=O)c2ccc(N3CCCCC3)c([N+](=O)[O-])c2)c1	5%
CC(=O)N(CC1CCCO1)C1(C(=O)NC2CCCC2)CCCCC1 (configuration not stated)	-2%
COc1cccc(OCc2nnc(SCC(=O)N3c4ccccc4Sc4ccc(Cl)cc43)o2)c1	?
COc1ccc(NC(=S)N(CCC(C)C)C2CCN(C(C)C)CC2)cc1	-13%
CC(=O)CCc1ccc(OCCCCN2CCC(Cc3ccccc3)CC2)cc1	9%
Cc1nc(-c2ccc(Cl)cc2)sc1C1(C)CC(c2cccc([N+](=O)[O-])c2)=NO1 (configuration not stated)	-11%
CCc1ccc(Nc2n[n+](-c3ccccc3)c(-c3cc(OC)c(OC)cc3Br)s2)cc1	-6%
O=C(CCN1C(=O)C2CC=CCC2C1=O)N1CCN(c2ccccn2)CC1 (configuration not stated)	4%
COc1ccc(CN2CCN(CCCc3ccccc3)C(CCO)C2)c(O)c1 (configuration not stated)	6%
COc1ccc(CCN2CC(C(=O)NCC(=O)Nc3ccc(F)c(F)c3)CC2=O)cc1OC (configuration not stated)	18%
COC(C(=O)Nc1ccnn1C1CCN(C(=O)c2ccc(C=O)cc2)CC1)c1ccccc1 (configuration not stated)	20%
CC1=C(C#N)C(c2ccccc2)C2=C(N1)c1ccccc1C2=O (configuration not stated)	5%
CC(C)(C)c1ccc(C(=O)NC2(C(F)(F)F)C(=O)Nc3c2c(=O)[nH]c(=O)n3-c2ccccc2)cc1 (configuration not stated)	0%
Cc1ccc(CNC(=O)Cn2c(-c3cccs3)cc3cc(Cl)ccc32)cc1	18%
S=C(Nc1ccc(Cl)cc1Cl)N1CCCC1	12%
COc1ccc(S(=O)(=O)N2CCOCC2)cc1NC(=O)COc1ccc2c(C)cc(=O)oc2c1	7%
Cc1ccc(S(=O)(=O)N(C)CC(=O)Nc2ccncc2)cc1	4%
CC(=O)NC(CC(C)C)C(=O)O (configuration not stated)	-3%
O=S(=O)(NCC(c1ccc2c(c1)OCO2)N1CCOCC1)c1ccc(Br)cc1 (configuration not stated)	-9%
Cc1ccc(-n2c(=O)[nH]c3cc(C(=O)NC4CCN(Cc5ccccc5)CC4)ccc3c2=O)cc1	-1%
CCOc1ccc(CCNC(=O)c2cnc3c(-c4ccc(F)cc4)c(C)nn3c2C)cc1OCC	11%
O=C(Cn1c(=O)oc2ccccc21)NCCc1ccccc1	11%
COc1cccc(CN2CCCC(C(=O)N3CCCCC3)C2)c1OC (configuration not stated)	-6%
COC(=O)c1ccc(CSc2cc(C)c3cc(C)cc(C)c3n2)o1	-15%
COC(=O)c1cc(S(=O)(=O)Nc2ccc(C)cn2)c[nH]1	-7%
COc1cc(/C=C2\SC(c3ccc(C)cc3)=NC2=O)cc(OC)c1O	?
Cc1ccc(C)c(N2C(=O)c3ccc(C(=O)OCC(=O)c4c(N)n(C)c(=O)n(C)c4=O)cc3C2=O)c1	-28%
CCOC(=O)c1ccc(NC(=O)CN2C(=O)c3cccnc3Sc3ccccc32)cc1	14%
Cc1cccc(C(=O)NC(=S)NNC(=O)Cc2ccccc2)c1	20%
COCCn1c(=O)c(C)nc2cnc(Nc3cccc(OC)c3)nc21	-16%
Cc1ccc(C(=O)Nc2nnc(COc3ccccc3)s2)cc1	-1%
CCOC(=O)C1=C(C)Nc2ccccc2S1	?
O=C(N/N=C/c1ccc(O)c(O)c1)C1c2ccccc2Oc2ccccc21	16%
CC(Oc1ccc(Br)cc1)C(=O)NC1CCCCCC1 (configuration not stated)	0%
CC(C)=NNC1=NC(C)(C)Cc2ccccc21	13%
CN(C(=O)c1cc2nc(-c3ccc4c(c3)OCO4)cc(C(F)(F)F)n2n1)c1ccc(OC(F)(F)F)cc1	-21%
CCCn1c(CCC(=O)O)ccc1-c1ccc(OC)cc1	12%
COc1ccc(-c2oc3ncnc(NCCCO)c3c2-c2ccc(OC)cc2)cc1	-6%
CCn1c(SCC(=O)c2ccc(C)cc2)nnc1-c1ccoc1C	-7%
O=C1CC(c2ccccc2)CC(O)=C1C=Nc1ccccc1O (configuration not stated)	5%
N#Cc1cccc(N=Cc2c(O)ccc3ccccc23)c1	0%
Cc1ccc(C(=O)OCC(=O)c2ccccc2)cc1	1%
O=C(CSc1nc2[nH]ncc2c(=O)[nH]1)NCCc1ccccc1	-17%
Cc1ccc(CNc2ccc3cc(S(=O)(=O)N4CCCCC4)ccc3n2)cc1	13%
CC1CCCCN1Cc1c(O)ccc2c(=O)c(-c3ccc(Cl)cc3)coc12 (configuration not stated)	-7%&12%
Cc1c2cnn(CC(=O)NC(C)C)c(=O)c2c(C)n1Cc1ccccc1Cl	1%
CC1=CC(C)(C)Nc2ccc(OC(=O)C(Cc3ccccc3)N3C(=O)c4ccccc4C3=O)cc21 (configuration not stated)	-13%
NC(=O)CN1C(=O)C2C3c4ccccc4C(c4ccccc43)C2C1=O (configuration not stated)	-7%
O=C(NCc1ccco1)/C(=C/c1cccc(C(F)(F)F)c1)c1nc2ccccc2[nH]1	-13%
CCSc1n[nH]c(=S)s1	0%
O=C(N/N=C1\CCCc2ccccc21)c1ccccc1[N+](=O)[O-]	-7%
CCC1CCC/C1=N\NC(=O)c1ccccc1Cl (configuration not stated)	-2%
Cc1ccc(C)c(NS(=O)(=O)c2ccc(-c3coc(C)n3)cc2)c1	-12%
O=C(O)C1CCCCC1C(=O)Nc1ccc(S(=O)(=O)N2CCCCCC2)cc1 (configuration not stated)	?
CC1CCCC(NC(=O)COC(=O)/C=C/c2ccc3c(c2)OCO3)C1C (configuration not stated)	-2%
O=C(NCc1ccccc1Cl)C1CCC(=O)N(CC2CCCCC2)C1 (configuration not stated)	5%
CCn1cnc2sc(C(=O)Oc3ccc(Br)cc3)c(C)c2c1=O	-3%
More entries.
SMILES	VDR inh
CC(=O)Nc1cc(C(=O)NCc2ccc(F)cc2Cl)ccc1Sc1ccc(Cl)cc1	-5%
COc1ccc(N2CCN(C(c3ccccc3)c3sc4nc(-c5ccco5)nn4c3O)CC2)cc1 (configuration not stated)	12%
CC1CCCN(CCC(=O)Nc2ccc(Br)cc2)C1 (configuration not stated)	-7%
CCOC(=O)c1cccc(NC(=O)CNS(=O)(=O)c2cccs2)c1	14%
CN(C(=O)CSc1nnc(-c2ccc(Cl)cc2)n1CC1CCCO1)C1CCS(=O)(=O)C1 (configuration not stated)	-14%
Cc1ccc2c(c1)N(CC(=O)NC1CCCC1)C(=O)C(C)O2 (configuration not stated)	-15%
COc1cc(OC)c(CNC2CCCCCC2)cc1Br	-15%
CNC[C@H]1Oc2c(NC(=O)C3CCCCC3)cccc2C(=O)N([C@H](C)CO)C[C@@H]1C	-10%
CC(OC(=O)c1snc(C(=O)NC2CCCCC2)c1N)C(=O)NC(C)(C)C (configuration not stated)	-12%
COc1ccc(/C=N/n2c(=O)[nH]c3c([nH]c4ccc(Cl)cc43)c2=O)cc1CN1CCCCC1	18%
O=C(NC1CCCC1)C1CCCN(S(=O)(=O)c2ccc(F)cc2)C1 (configuration not stated)	14%
CSc1ccc(Cl)c(C(=O)Nc2nccs2)c1	8%

High-throughput results from PubChem.

An excerpt, so the mix of outcomes need not match the whole.
